# Source: PubChem BioAssay (Broad Institute)
# FGF22 binding = binders of recombinant human FGF22 by thermal shift; Q9HCT0; SYPRO orange fluorescence; percent of sucrose octasulfate shift, DMSO zero; calls only at 9.99 µM; hit rate 1.5% among 340,000; AID 651658;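 active = melting point raised past a set limit in the mean and every replicate; three in four hits are not shown here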
# Target sequence (Q9HCT0 whole entry, looked up): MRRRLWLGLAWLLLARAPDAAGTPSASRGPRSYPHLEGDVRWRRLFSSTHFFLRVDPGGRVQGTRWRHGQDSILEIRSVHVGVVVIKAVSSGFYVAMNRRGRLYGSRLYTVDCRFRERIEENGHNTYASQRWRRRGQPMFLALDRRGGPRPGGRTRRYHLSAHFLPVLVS
# Ecoli rRNA inh = inhibitors of bacterial rRNA selective over humanized ribosomes; AID 720706; E. coli WT GFP vs humanized-ribosome RFP mutants, fluorescence, 24 h; stronger effect = lower value; DMSO median 0, no signal -100; GFP signal change (wild-type ribosome), % (concentration not given with the values); hit rate 1.6% among 350,000;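 active = significant combined selectivity score with lowered wild-type GFP, culture density cut under 30%, mutant RFP and density less affected; inactive = any of these conditions unmet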; also: one replicate is shown; some compounds called inactive have numbers as strong as hits
# AF4-AF9 inh = MLL-AF4/AF9 protein interaction inhibition; AlphaScreen, biotin-AF4 peptide binding to FLAG-AF9; P42568; inhibition, % at 10 µM; hit rate 0.47% among 350,000;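 active = every replicate reaching a set inhibition limit, whatever the replicate mean, cut at about 25% in these data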;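 also: 0% = plate neutral control median and 100% = total signal loss; the record names both 10 and 1 µM as test concentration; the first replicate is given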
# Target sequence (P42568 whole entry, looked up): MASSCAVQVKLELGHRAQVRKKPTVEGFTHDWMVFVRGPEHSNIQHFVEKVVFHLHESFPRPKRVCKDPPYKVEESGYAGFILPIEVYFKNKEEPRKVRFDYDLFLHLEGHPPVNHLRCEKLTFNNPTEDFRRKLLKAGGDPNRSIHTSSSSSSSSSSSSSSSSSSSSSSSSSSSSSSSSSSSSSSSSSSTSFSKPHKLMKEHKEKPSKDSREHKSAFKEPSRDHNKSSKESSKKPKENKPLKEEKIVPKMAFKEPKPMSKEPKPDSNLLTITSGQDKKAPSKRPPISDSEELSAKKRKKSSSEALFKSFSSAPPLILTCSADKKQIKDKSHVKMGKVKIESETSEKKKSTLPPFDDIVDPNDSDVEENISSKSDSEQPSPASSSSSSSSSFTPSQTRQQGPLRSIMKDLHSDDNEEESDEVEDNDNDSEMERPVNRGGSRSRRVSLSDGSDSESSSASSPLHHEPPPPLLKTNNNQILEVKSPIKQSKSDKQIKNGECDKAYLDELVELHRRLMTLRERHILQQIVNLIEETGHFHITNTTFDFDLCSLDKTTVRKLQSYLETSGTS
# Ecoli rRNA inh OD600 = recorded beside Ecoli rRNA inh, whose call it bears; OD600 change, %; measured here: OD600 growth;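 optical density of the mix in the first replicate; 0 = DMSO median and -100 = no signal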
# Ecoli rRNA inh RFP = second read-out of Ecoli rRNA inh, no call of its own (marks repeat the call); RFP signal change, %; measured here: RFP humanized mutant strains;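 first replicate; 0 = DMSO median and -100 = no signal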
# * = called active by the depositor; i = inactive. This is a subset. The share of hits here may be higher or lower than overall.
# Results follow in this order: AF4-AF9 inh	FGF22 binding	Ecoli rRNA inh	Ecoli rRNA inh OD600	Ecoli rRNA inh RFP
> C[C@@H]1CN([C@@H](C)CO)C(=O)c2cc(NS(=O)(=O)c3cccs3)ccc2O[C@H]1CN(C)Cc1ccccc1
  -0.9	i	-1.1	-5.2	-0.7
> O=C(Nc1nnc([C@@H]2C[C@H](O)[C@@H](CO)O2)s1)c1cccs1
  -4.3	i	16.6	16.7	2.5
> CCCS(=O)(=O)NC(=O)C1(C)CCCN(C(=O)COc2ccc(Cl)cc2Cl)C1 (centres undefined)
  -2.5	i	-4.1	-4.5	-0.2
> O=C(NCC[C@@H]1CC[C@@H](NC(=O)C2CCCC2)[C@H](CO)O1)Nc1ccc(Cl)cc1
  15.9	i	-27.6	-50.5	8.6
> CCC(=O)N1CCC1(C)C(=O)NCc1ccccc1SC (centres undefined)
  -18.1	i	5.6	6.2	0.4
> COc1ccc(NC(=O)Nc2ccc3c(c2)C(=O)N([C@H](C)CO)C[C@@H](C)[C@H](CN(C)C(=O)Nc2ccc4c(c2)OCO4)OCCCC[C@@H](C)O3)cc1
  0.6	i	-3.1	10.1	-1.4
> C[C@H]1CN([C@@H](C)CO)C(=O)c2cccc(NC(=O)Nc3ccc(C(F)(F)F)cc3)c2O[C@@H]1CN(C)C
  -1.5	i	-1.1	-7.2	0.3
> CO[C@@H]1CN(C)C(=O)c2cc(NC(=O)c3ccc(Oc4ccccc4)cc3)ccc2OC[C@@H](C)N(C(C)=O)C[C@H]1C
  3.6	i	-1.6	-13.4	3.4
> C[C@@H]1CCCCO[C@@H](CN(C)Cc2ccc(C(=O)O)cc2)[C@H](C)CN([C@@H](C)CO)C(=O)c2cc(NC(=O)c3ccccc3)ccc2O1
  -1.0	i	1.9	12.3	-1.4
> CNC[C@H]1OCCCC[C@@H](C)Oc2ccc(NS(=O)(=O)c3cccs3)cc2C(=O)N([C@H](C)CO)C[C@@H]1C
  -5.4	i	5.3	6.6	0.7

# Some of these compounds in order of their number in AF4-AF9 inh, rising.
# Results follow in this order: AF4-AF9 inh	FGF22 binding	Ecoli rRNA inh	Ecoli rRNA inh OD600	Ecoli rRNA inh RFP
> O=C(Nc1nnc([C@@H]2C[C@H](O)[C@@H](CO)O2)s1)c1cccs1
  -4.3	i	16.6	16.7	2.5
> C[C@H]1CN([C@@H](C)CO)C(=O)c2cccc(NC(=O)Nc3ccc(C(F)(F)F)cc3)c2O[C@@H]1CN(C)C
  -1.5	i	-1.1	-7.2	0.3
> C[C@@H]1CN([C@@H](C)CO)C(=O)c2cc(NS(=O)(=O)c3cccs3)ccc2O[C@H]1CN(C)Cc1ccccc1
  -0.9	i	-1.1	-5.2	-0.7

# (more compounds)
# Results follow in this order: AF4-AF9 inh	FGF22 binding	Ecoli rRNA inh	Ecoli rRNA inh OD600	Ecoli rRNA inh RFP
> O=C(NC1CCCCC1)N[C@H]1CC[C@@H](CC(=O)N2CCOCC2)O[C@H]1CO
  0.1	i	1.2	2.7	0.9
> COc1ccc(-c2ccc([C@@H]3[C@H](C#N)N(C(=O)c4cccc(F)c4)[C@H]3CO)cc2)cc1
  -0.9	i	-2.3	-47.6	18.8
> CC(C)C#Cc1ccc2c(c1)O[C@@H](CN(C)Cc1cccnc1)[C@H](C)CN([C@@H](C)CO)S2(=O)=O
  12.1	i	-34.8	-44.8	16.2
> C[C@H](CO)N1C[C@H](C)[C@@H](CN(C)C)OCCCC[C@H](C)Oc2ccc(NC(=O)c3ccncc3)cc2C1=O
  -6.9	i	-0.6	4.5	-1.0
> CC(C)NC(=O)Nc1ccc2c(c1)CC(=O)N([C@@H](C)CO)C[C@H](C)[C@H](CN(C)S(=O)(=O)c1ccc(Cl)cc1)O2
  -2.4	i	-1.2	5.3	0.3
> COCC(=O)Nc1ccc2c(c1)[C@H]1C[C@@H](CC(=O)NCCc3ccccc3)O[C@H](CO)[C@H]1O2
  2.6	i	-1.3	-2.2	0.1
> Cc1nn(C)cc1NC(=O)C[C@@H]1CC[C@@H]2[C@@H](COc3ccc(NC(=O)Nc4cccc(Cl)c4)cc3C(=O)N2C)O1
  2.5	i	-9.0	-14.2	1.2
> OC[C@H]1[C@H](c2ccc(-c3ccc(F)cc3)cc2)[C@@H]2CN(CCC(F)(F)F)CCCCN12
  6.4	i	-61.8	-73.4	-15.8
> CNC[C@@H]1OCCCC[C@H](C)Oc2ccc(NC(=O)NC(C)C)cc2C(=O)N([C@H](C)CO)C[C@@H]1C
  -9.0	i	5.9	1.4	-2.0
> COc1ccc(NC(=O)N(C)C[C@H]2Oc3ccc(NS(=O)(=O)c4ccccc4)cc3CC(=O)N([C@@H](C)CO)C[C@H]2C)cc1
  -0.9	i	-0.8	-2.1	-2.4
> C[C@@H]1CN([C@H](C)CO)C(=O)c2cccc(NC(=O)Nc3ccc(C(F)(F)F)cc3)c2O[C@@H]1CN(C)C(=O)Nc1ccccc1
  4.0	i	1.5	11.2	1.9
> COc1cc(NC(=O)Nc2nc(C(N)C(C)C)cs2)cc(OC)c1OC (centres undefined)
  18.9	i	3.8	-0.5	0.4
> CN(C)C(=O)c1ccc(-c2ccc([C@H]3[C@H](C#N)N(C(=O)Cc4ccccn4)[C@H]3CO)cc2)cc1
  1.3	i	1.2	17.8	2.9
> C[C@H]1CN([C@@H](C)CO)C(=O)c2cc(NS(=O)(=O)c3ccc(Cl)cc3)ccc2O[C@@H]1CN(C)S(=O)(=O)c1ccc(Cl)cc1
  -0.3	i	-2.5	-8.8	2.8
> O=C(C[C@@H]1CC[C@@H]2[C@H](COC[C@@H](O)CN2C(=O)c2ccncc2)O1)NCc1cccc(F)c1
  -21.2	i	6.9	3.5	2.6
> C[C@H](CO)N1C[C@H](C)[C@H](CN(C)Cc2ccc(C(F)(F)F)cc2)Oc2ccc(NC(=O)C3CCCCC3)cc2CC1=O
  2.3	i	-1.0	-3.2	-0.7
> CCc1nc2ccc(C(=O)N3CCN(C(=O)c4ccco4)CC3)cn2c1N(C)Cc1cccs1
  2.2	i	7.2	12.4	0.9
> Cc1ccc(F)cc1C(=O)N1CCCCC1c1cc(C(=O)Nc2ccccc2)no1 (centres undefined)
  1.8	i	-1.4	-13.6	-0.2
> O=C(NCC[C@H]1CC[C@@H](NC(=O)Nc2cc(F)ccc2F)[C@H](CO)O1)Nc1ccc(Cl)cc1
  16.8	i	-59.8	-78.5	-18.8
> C[C@@H]1CN([C@@H](C)CO)C(=O)c2cc(NS(=O)(=O)c3ccccc3)ccc2O[C@@H](C)CCCCO[C@H]1CN(C)C(=O)C1CCCCC1
  -0.2	i	-2.0	4.3	1.1

# 3 entries already listed, sorted by molar mass, smallest number first.
# Results follow in this order: AF4-AF9 inh	FGF22 binding	Ecoli rRNA inh	Ecoli rRNA inh OD600	Ecoli rRNA inh RFP
> O=C(Nc1nnc([C@@H]2C[C@H](O)[C@@H](CO)O2)s1)c1cccs1
  -4.3	i	16.6	16.7	2.5
> C[C@H](CO)N1C[C@H](C)[C@@H](CN(C)C)OCCCC[C@H](C)Oc2ccc(NC(=O)c3ccncc3)cc2C1=O
  -6.9	i	-0.6	4.5	-1.0
> C[C@@H]1CN([C@H](C)CO)C(=O)c2cccc(NC(=O)Nc3ccc(C(F)(F)F)cc3)c2O[C@@H]1CN(C)C(=O)Nc1ccccc1
  4.0	i	1.5	11.2	1.9

# Continuation.
# Results follow in this order: AF4-AF9 inh	FGF22 binding	Ecoli rRNA inh	Ecoli rRNA inh OD600	Ecoli rRNA inh RFP
> COc1ccc2c3c([nH]c2c1)[C@@H](CO)N(C(=O)Nc1ccc(F)cc1)CC31CN(C(=O)Cc2ccncc2)C1
  -1.8	i	-2.5	16.1	-1.2
> C[C@@H]1CN([C@@H](C)CO)C(=O)Cc2cc(NC(=O)Nc3ccc(C(F)(F)F)cc3)ccc2O[C@@H]1CN(C)Cc1ccc(C(F)(F)F)cc1
  1.6	i	1.0	0.3	-0.4
> CNC[C@@H]1Oc2ncc(-c3ccccc3F)cc2C(=O)N([C@H](C)CO)C[C@@H]1C
  3.8	i	4.8	8.9	-2.4
> COCCCNc1nccn2ccnc12
  -2.1	i	5.6	15.3	-1.4
> O=C(C[C@@H]1CC[C@@H](NC(=O)C2CCOCC2)[C@H](CO)O1)Nc1ccc(-c2ccccc2)cc1
  -0.2	i	-6.9	-2.8	-1.7
> C[C@@H]1CCCCO[C@@H](CN(C)Cc2ccc3c(c2)OCO3)[C@H](C)CN([C@H](C)CO)C(=O)c2cc(NC(=O)Nc3ccc4c(c3)OCO4)ccc2O1
  32.0*	i	5.4	-14.6	3.5
> Cc1noc(C)c1NC(=O)Nc1ccc2c(c1)C(=O)N([C@@H](C)CO)C[C@@H](C)[C@@H](CN(C)S(=O)(=O)c1cn(C)cn1)O2
  -2.2	i	5.6	5.7	-1.4
> COc1cccc(C(O)c2nc(-c3ccc(OC)nc3)cs2)c1 (centres undefined)
  -2.5	i	-3.2	-7.0	1.0
> CN(C)CC(=O)Nc1ccc2c(c1)[C@@H]1C[C@@H](CC(=O)NC3CCCCC3)O[C@@H](CO)[C@@H]1O2
  -1.0	i	3.6	-1.7	0.5
> CC(C)NC(=O)N(C)C[C@@H]1Oc2c(NC(=O)C3CCOCC3)cccc2C(=O)N([C@H](C)CO)C[C@@H]1C
  -0.5	i	1.3	8.2	-1.5
> COC(=O)[C@@H](Cc1ccccc1)NS(=O)(=O)N[C@H](Cc1ccccc1)C(=O)OC
  -3.4	i	-2.7	-0.2	4.2
> CC=Cc1ccc2n(c1=O)C[C@@H]1[C@@H](CO)[C@H](C(=O)NCC(F)(F)F)N(CCC)[C@H]21 (mixture of isomers)
  -2.0	i	0.5	4.0	0.6
> O=C(N[C@H]1C=C[C@H](CC(=O)N2CCCCC2)O[C@H]1CO)c1ccc2c(c1)OCO2
  -1.1	i	1.9	6.1	-0.4
> C[C@H]1CCCCO[C@H](CN(C)Cc2ccccc2)[C@@H](C)CN([C@@H](C)CO)C(=O)c2cc(NC(=O)Nc3ccc(C(F)(F)F)cc3)ccc2O1
  0.0	i	-1.3	-17.9	5.6
> Cc1ccc(-c2ccc3c(c2)O[C@H](CN(C)Cc2cccnc2)[C@H](C)CN([C@H](C)CO)S3(=O)=O)cc1
  9.3	i	-45.6	-49.8	5.6
> CO[C@H]1CN(C)C(=O)c2ccc(NC(=O)c3cc(C)on3)cc2OC[C@@H](C)N(C(C)=O)C[C@H]1C
  -1.9	i	-0.9	-0.3	-1.0
> C[C@H](O)C#Cc1ccc([C@@H]2[C@@H](CO)N3CCCCN(C(=O)c4cccc(F)c4)C[C@@H]23)cc1
  -6.5	i	-0.6	9.8	-1.3
> CCCCNC(=O)C1(C)CCCCN1C(=O)c1cc(C#N)cs1 (centres undefined)
  -0.3	i	7.0	6.7	1.7
> CCCCN1C(=O)C(CC(=O)NCc2cccs2)CC(C(=O)N2CCOCC2)=C1C (centres undefined)
  -0.8	i	9.8	5.6	-1.7
> CCCNC(=O)N(C)C[C@@H]1Oc2ncc(-c3ccc(OC)cc3)cc2C(=O)N([C@H](C)CO)C[C@H]1C
  -1.5	i	2.4	10.8	-0.1
> Cc1ccc(S(=O)(=O)NCC[C@@H]2CC[C@H](NC(=O)c3cccc(F)c3)[C@@H](CO)O2)cc1
  3.4	i	-0.2	6.1	-0.9
> CCOC(=O)C1=C[C@@H](C(C)(C)C)N(S(=O)(=O)c2ccc([N+](=O)[O-])cc2)[C@H]1c1ccccc1
  4.9	i	-2.2	-10.3	-7.7
> CN1c2ccc(-c3cccc(F)c3)cc2[C@H]2[C@H](CCN2C(=O)Nc2ccccc2F)[C@H]1CO
  7.9	i	6.2	-31.6	34.5
> COc1ccc(CN(C)C[C@H]2Oc3c(NC(=O)c4ccc(-c5nccs5)cc4)cccc3C(=O)N([C@H](C)CO)C[C@@H]2C)cc1
  5.0	i	-11.0	-17.6	5.5
> C[C@@H]1CCCCO[C@@H](CN(C)CC2CC2)[C@@H](C)CN([C@H](C)CO)C(=O)c2cc(N(C)C)ccc2O1
  4.7	i	2.3	5.6	1.1
> CO[C@@H]1CN(C)C(=O)c2cc(NC(=O)c3cc(C)on3)ccc2OC[C@H](C)N(C)C[C@@H]1C
  -2.6	i	2.9	6.8	-0.4
> O=C(NC1CCC1)[C@H]1[C@H](CO)[C@H]2Cn3c(ccc(-c4cncnc4)c3=O)[C@H]2N1C(=O)NC1CCCC1
  -0.9	i	1.8	2.0	-4.6
> COc1ccc2c3c(n(C)c2c1)[C@@H](CO)N(CC1CC1)CC31CN(C(=O)c2cccc(F)c2)C1
  0.8	i	-7.0	-16.9	7.1
> CCCNC(=O)C[C@H]1C[C@@H]2c3cc(NS(=O)(=O)c4ccc(F)cc4)ccc3O[C@@H]2[C@H](CO)O1
  -0.8	i	-0.3	-2.2	-5.5
> CN1C[C@@H]2[C@H](c3ccccc31)[C@@H](CO)N2Cc1ccccc1Cl
  7.7	i	-1.0	6.8	-1.0
> O=C(/C=C/[C@H]1O[C@@H](n2ccc(=O)[nH]c2=O)[C@H](O)[C@@H]1O)NCCN1CCCC1
  0.1	i	4.6	3.2	-3.3
> C[C@H](CO)N1C[C@H](C)[C@H](CN(C)S(=O)(=O)c2ccc(Cl)cc2)Oc2ccc(N(C)C)cc2C1=O
  4.6	i	-2.8	-0.4	1.4
> CC1(C(=O)Nc2ccc3c(c2)OCCO3)CN(S(C)(=O)=O)CC(=O)N1C1CCCCCC1 (centres undefined)
  3.4	i	1.3	1.0	4.6
